Sfp PPTase inh: qHTS Assay for Inhibitors of Bacillus subtilis Sfp phosphopantetheinyl transferase (PPTase) | 310,000 tested, 3.5% active | Potency, µM, without a hit: max response, negative = inhibition, most hits filed as inhibitors | Biochemical Sfp PPTase activity, qHTS | AID 1490, 2009; active means well fitted inhibition curve with a large enough effect; inconclusive means small, poorly fitted or top-dose-only effect, or another doubt; inactive means no such curve, though single readings can be large or run the other way;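 further: the enzyme is Sfp with the accession as filed and its product quenches rhodamine fluorescence; potency means the concentration at half of the fitted maximal effect; 0% = enzyme reaction without inhibitor and -100% = no enzyme wells; top concentration of the series not given in the record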
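Fluorescence-quenching assay: 15 nM Sfp-PPTase preincubated 15 min at room temperature with compound, then 5 uM rhodamine-CoA and 12.5 uM BHQ-2-labelled YbbR peptide added. Fluorescence (ex 525/em 598 nm) read at start and after 30 min; difference gives rate.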
CtBP-E1A blk: qHTS Assay for Inhibitors of the CtBP/E1A Interaction; CtBP / adenovirus E1A interaction (AlphaScreen); AlphaScreen GST-E1A/His-CtBP binding, 1536-well; hits give low values; control for the full effect not named in the record; activity change, % (no concentration beside the values); 340,000 tested, 0.49% active; AID 651724, 2012; in the data active means activity change below about -65%; inconclusive means about -30% to -65%; inactive means above about -30%; further: on the % scale 0 is the no-effect control and ±100 the full control effect; compound concentration not given in the record
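Protein mix (5X: 125 nM each GST-E1A, His-CtBP) was incubated with pinned compound 2 h at 37 deg C in dark, in 50 mM Tris pH 8.0 buffer with 300 mM NaCl. Glutathione donor and nickel acceptor beads followed; AlphaScreen signal read after 1 h.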
Six1-Eya2 inh: qHTS Assay for Inhibitors of the Six1/Eya2 Interaction; AID 651725, 2012; activity change, % (no concentration beside the values); Homeobox protein SIX1 (Homo sapiens) + Protein phosphatase EYA2 (Homo sapiens), …; AlphaScreen GST-Six1/His-Eya2 binding, biochemical; hits give low values; control for the full effect not named in the record; 360,000 tested, 0.56% active; in the data active = activity change below about -65%; inconclusive = about -30% to -65%; inactive = above about -30%; further: on the % scale 0 is the no-effect control and ±100 the full control effect; compound concentration not given in the record
Target sequence (O00167 whole entry, looked up): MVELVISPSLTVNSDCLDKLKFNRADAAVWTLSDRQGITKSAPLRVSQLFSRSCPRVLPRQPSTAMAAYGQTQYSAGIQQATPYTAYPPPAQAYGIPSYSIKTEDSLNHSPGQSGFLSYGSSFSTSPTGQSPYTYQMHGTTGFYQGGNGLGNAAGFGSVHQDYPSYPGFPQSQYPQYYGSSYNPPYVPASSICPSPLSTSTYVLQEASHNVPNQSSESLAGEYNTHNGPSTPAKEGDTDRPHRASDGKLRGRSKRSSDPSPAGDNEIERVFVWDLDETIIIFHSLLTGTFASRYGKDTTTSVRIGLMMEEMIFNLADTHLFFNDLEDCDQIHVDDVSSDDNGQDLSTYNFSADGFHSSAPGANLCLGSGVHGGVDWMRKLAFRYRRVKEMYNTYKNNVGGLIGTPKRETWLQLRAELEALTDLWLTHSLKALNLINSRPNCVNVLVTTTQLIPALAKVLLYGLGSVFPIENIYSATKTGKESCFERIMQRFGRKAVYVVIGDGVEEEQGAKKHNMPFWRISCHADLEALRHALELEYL
Target sequence (Q15475 whole entry, looked up): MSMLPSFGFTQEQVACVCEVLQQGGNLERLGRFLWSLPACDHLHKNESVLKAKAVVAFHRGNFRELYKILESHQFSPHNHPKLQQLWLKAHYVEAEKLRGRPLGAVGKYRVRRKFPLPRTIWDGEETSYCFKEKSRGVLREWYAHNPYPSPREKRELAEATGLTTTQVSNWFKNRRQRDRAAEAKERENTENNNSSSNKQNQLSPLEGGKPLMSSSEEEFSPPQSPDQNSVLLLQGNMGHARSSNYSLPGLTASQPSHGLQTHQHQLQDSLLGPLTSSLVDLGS
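Compounds are tested against tagged Six1 and Eya2 proteins bridged by glutathione donor and nickel acceptor beads; after a one-hour incubation at 37 °C without light, AlphaScreen emission is recorded.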
PINK1 expr mod: A Quantitative High throughput Screen to Identify Chemical Modulators of PINK1 Expression. PINK1 immunofluorescence, high-content cytometry, 24 h. Potency, µM (titrated, usually from 76.6 µM), for inactives: at the highest dose activation (PINK1 increase), usual class: activators. 410,000 tested, 0.2% active. AID 624263, 2012; active = well fitted activation curve with a large enough effect; inconclusive = small, poorly fitted or top-dose-only effect; inactive = flat fitted curve, though single readings scatter; cell line not stated here;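 further: potency means the concentration at half of the fitted maximal effect; % of control where 0% means no effect; nearly all actives have a fitted effect of over 65% in size; a mitochondrial uncoupler was the plate control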
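Fluorescence from anti-PINK1 antibody, together with nuclear and cell stains, was scanned on a laser-scanning cytometer. Before staining, stable-line cells were incubated 24 hours with compounds at 5 concentrations; primary antibody 12 h at 10 degrees C.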
TRPV1 potentiator: HTS Assay for Compounds that Act as Potentiators of the Vanilloid Receptor 1 | Transient receptor potential cation channel subfamily V member 1 (Homo sapiens), Q8NER1 | TRPV1-expressing cells, Fluo-8 calcium influx, capsaicin EC20 potentiation; host cell line not named in the record; control for the full effect not named in the record | potentiation, % at 8.33 µM | 320,000 tested, 0.02% active | AID 540277, 2011; active means potentiation above 80%; inconclusive means 30% to 80%; inactive means below 30%; further: 0% is about no effect
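TRPV1-expressing cells were cultured overnight at 35.5C and loaded with Fluo-8 calcium dye for 40 to 90 min at room temperature. After a 10 s baseline, compound was added and calcium influx was read kinetically for 3 min (ex 480/em 520 nm).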
D2 ag: Beta-Arrestin HTS for Positive Allosteric Modulators of the Human D2 Dopamine Receptor: Agonists; DiscoveRx PathHunter D2 beta-arrestin, luminescence, 90 min; 100% = 57 uM dopamine signal; D(2) dopamine receptor (Homo sapiens), P14416; activation, % (test concentration not listed); 360,000 tested, 0.084% active; in the data active = activation above about 40%; inconclusive = about 15% to 40%; inactive = below about 15%; further: compound concentration not given in the record; the text of the record calls up to 30% inactive
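Agonist mode: compounds alone added to overnight-plated D2 PathHunter cells for 90 min at 37 C, with 57 uM final dopamine (EC100) defining full response. Beta-arrestin recruitment detected by chemiluminescent reagent, read after 1 h at ambient temperature.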
D2 potentiator: Beta-Arrestin HTS for Positive Allosteric Modulators of the Human D2 Dopamine Receptor: Potentiators. DiscoveRx D2 beta-arrestin cells, luminescence, 90 min; 100% = 57 uM dopamine signal. AID 624464, 2012. D(2) dopamine receptor (Homo sapiens), P14416. 360,000 tested, 0.23% active. potentiation, % (no concentration beside the values); active = potentiation of 50% or more; inconclusive = 30% to 50%; inactive = 30% or less;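 further: compound concentration not given in the record; tested on top of an EC20 dose of dopamine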
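PathHunter D2 cells, attached overnight at 37 deg C, received compound in DMSO plus dopamine at EC20 (50 nM final) for 90 min at 37 deg C. Beta-arrestin recruitment was read as luminescence after 1 h with detection reagent at ambient temperature.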
* marks the source's active call; other numbers are inactive results; [ ] = another dose, or the depositor's remark.

For COc1ccc(NS(=O)(=O)c2cc(S(C)(=O)=O)ccc2C)cc1 the results were Sfp PPTase inh 2%, CtBP-E1A blk 1, Six1-Eya2 inh 9, PINK1 expr mod 3.0%, TRPV1 potentiator inconclusive, D2 ag -1.7 and D2 potentiator 5.
`CCn1nc(C)c(NC(=O)CC23CC4CC(CC(C4)C2)C3)c1C` gave Sfp PPTase inh 7%, CtBP-E1A blk 18, Six1-Eya2 inh 8, PINK1 expr mod inconclusive, TRPV1 potentiator -13, D2 ag 2.7 and D2 potentiator 3.
CCSc1ccc2nnc(-c3cccc(F)c3)n2n1 was read as Sfp PPTase inh inconclusive, CtBP-E1A blk inconclusive, Six1-Eya2 inh inconclusive, PINK1 expr mod -2.8%[38.3 µM], TRPV1 potentiator -4, D2 ag 0.2 and D2 potentiator -6.
Screening Cc1ccc2nc(NCCCN3CCOCC3)c(C=NCCCN3CCOCC3)c(=O)n2c1 returned Sfp PPTase inh 13%, CtBP-E1A blk 0, Six1-Eya2 inh -1, PINK1 expr mod -2.2%, TRPV1 potentiator 5, D2 ag -1.0 and D2 potentiator 2.
For O=C1N(CN2CCN(c3cccc(Cl)c3)CC2)c2ccccc2C12OCCCO2 the results were Sfp PPTase inh 19%, CtBP-E1A blk 47, Six1-Eya2 inh 21, PINK1 expr mod -0.9%[38.3 µM], TRPV1 potentiator -2, D2 ag -1.1 and D2 potentiator -17.
Screening CC(C)(O)[C@H]1Cc2cc3ccc(=O)oc3cc2O1 returned Sfp PPTase inh 12%, CtBP-E1A blk 1, Six1-Eya2 inh 3, PINK1 expr mod 4.0%, TRPV1 potentiator 10, D2 ag -2.9 and D2 potentiator -16.
COc1ccc(NC(=O)C2CCCO2)cc1Cl (stereo not given) was read as Sfp PPTase inh 19%, CtBP-E1A blk 4, Six1-Eya2 inh 5, PINK1 expr mod 15%[38.3 µM], TRPV1 potentiator -3, D2 ag -2.0 and D2 potentiator -4.
Screening CC(C)=CCC[C@](C)(O[C@@H]1O[C@H](CO[C@@H]2OC[C@H](O[C@@H]3OC[C@@H](O)[C@H](O)[C@H]3O)[C@H](O)[C@H]2O)[C@@H](O)[C@H](O)[C@H]1O)C1CC[C@]2(C)C1[C@H](O)CC1[C@@]3(C)CC[C@H](O)C(C)(C)C3[C@@H](O)C[C@]12C (stereo not given in full) returned CtBP-E1A blk 4, Six1-Eya2 inh -3, PINK1 expr mod -0.1%, D2 ag 0.9 and D2 potentiator -4.
CCOC(=O)c1[nH]c2ccc(OCC)cc2c1NC(=O)CN1CCN(c2ccccc2)CC1 was read as Sfp PPTase inh 2%, CtBP-E1A blk 8, Six1-Eya2 inh 2, PINK1 expr mod 4.7%, TRPV1 potentiator -15, D2 ag -0.5 and D2 potentiator -7.
O=C(CCc1ccc(S(=O)(=O)NC2CCCCC2)cc1)NCc1ccccn1 was read as Sfp PPTase inh 40µM*, CtBP-E1A blk 3, Six1-Eya2 inh -1, PINK1 expr mod -1.7%, TRPV1 potentiator 2, D2 ag 2.4 and D2 potentiator -8.
CC1CCC(NC(=O)C(Cc2ccccc2)n2cccc2)CC1 (stereo not given) was read as Sfp PPTase inh 0%, CtBP-E1A blk 1, Six1-Eya2 inh -7, PINK1 expr mod 1.5%, TRPV1 potentiator 0, D2 ag -1.7 and D2 potentiator -12.
`COc1ccc(N2C(=NC(=O)C3CC3)SC3CS(=O)(=O)CC32)cc1Cl` (stereo not given) gave Sfp PPTase inh 7%, Six1-Eya2 inh -6, PINK1 expr mod 1.0%, TRPV1 potentiator 2, D2 ag 0.1 and D2 potentiator -13.
Screening Cc1ccc(C(=O)N2CCC2(C)C(=O)NC(C)C)cc1 (stereo not given) returned CtBP-E1A blk 5, Six1-Eya2 inh 3, PINK1 expr mod -0.1%, D2 ag 4.2 and D2 potentiator -1.
Screening O=C(NC(NC(=S)Nc1c(Cl)cccc1Cl)C(Cl)(Cl)Cl)OCc1ccccc1 (stereo not given) returned Sfp PPTase inh 14%, CtBP-E1A blk -6, Six1-Eya2 inh -1, PINK1 expr mod inconclusive, TRPV1 potentiator -12, D2 ag 1.3 and D2 potentiator -7.
Screening COc1ccc(CNC(=O)NCCc2c[nH]c3ccccc23)cc1 returned Sfp PPTase inh -27%, CtBP-E1A blk -1, Six1-Eya2 inh -2, PINK1 expr mod -0.8%, TRPV1 potentiator 14, D2 ag -1.4 and D2 potentiator -6.

Entries listed so far that have two or more sulfur atoms (two):
For COc1ccc(NS(=O)(=O)c2cc(S(C)(=O)=O)ccc2C)cc1 the results were Sfp PPTase inh 2%, CtBP-E1A blk 1, Six1-Eya2 inh 9, PINK1 expr mod 3.0%, TRPV1 potentiator inconclusive, D2 ag -1.7 and D2 potentiator 5.
`COc1ccc(N2C(=NC(=O)C3CC3)SC3CS(=O)(=O)CC32)cc1Cl` (stereo not given) gave Sfp PPTase inh 7%, Six1-Eya2 inh -6, PINK1 expr mod 1.0%, TRPV1 potentiator 2, D2 ag 0.1 and D2 potentiator -13.

(continued)
Cc1ccccc1NC(=O)C(NS(=O)(=O)c1ccc2c(c1)c(=O)n(C)c(=O)n2C)c1ccccc1 (stereo not given) was read as Sfp PPTase inh 0%, CtBP-E1A blk -1, Six1-Eya2 inh -19, PINK1 expr mod 0.2%, TRPV1 potentiator inconclusive, D2 ag -4.0 and D2 potentiator -3.
For CCC(=O)N1N=C(c2c(O)n(C)c(=O)n(C)c2=O)CC1c1ccccc1 (stereo not given) the results were Sfp PPTase inh -15%, Six1-Eya2 inh 3, PINK1 expr mod -0.4%, TRPV1 potentiator 4, D2 ag 14 and D2 potentiator 2.
Screening COc1ccc(-c2sc3cc4c(cc3c2C#Cc2ccc(N)cc2)OCO4)cc1 returned CtBP-E1A blk 20, Six1-Eya2 inh 8, PINK1 expr mod 3.4%, D2 ag 0.1 and D2 potentiator -10.
O=C1NC[C@H](c2ccccc2)N(CCc2cc(C(F)(F)F)cc(C(F)(F)F)c2)C1=O was read as Sfp PPTase inh 13%, Six1-Eya2 inh 1, PINK1 expr mod 2.3%, TRPV1 potentiator -6, D2 ag 1.5 and D2 potentiator 0.
COc1ccc(OC)c(NC(=O)CCCCCn2nnc3ccccc3c2=O)c1 was read as Sfp PPTase inh 8%, Six1-Eya2 inh -3, PINK1 expr mod 0.6%, TRPV1 potentiator 13, D2 ag 3.8 and D2 potentiator -5.
Screening CCN1C(=O)[C@H]2[C@H]3CN=C(SCc4ccc(C#N)cc4)N3[C@@](C)(C(=O)OC)[C@H]2C1=O returned CtBP-E1A blk 9, Six1-Eya2 inh 7, PINK1 expr mod -0.3%, D2 ag -0.7 and D2 potentiator 4.
For Fc1ccc(CNC(=S)Nc2ccccc2Cl)cc1 the results were Sfp PPTase inh 6%, CtBP-E1A blk 2, Six1-Eya2 inh -1, PINK1 expr mod 0.7%, TRPV1 potentiator -12, D2 ag 1.2 and D2 potentiator -11.
For CCOC(=O)N1CCN(c2c(NC3CCN(Cc4ccccc4)CC3)c(=O)c2=O)CC1 the results were Sfp PPTase inh 18%, CtBP-E1A blk 4, Six1-Eya2 inh 7, PINK1 expr mod 5.4%, TRPV1 potentiator -8, D2 ag -9.8 and D2 potentiator -11.
Screening COCCNC(=O)Cn1cc(S(=O)(=O)N2CCN(c3ccccc3F)CC2)c2ccccc2c1=O returned Sfp PPTase inh 6%, CtBP-E1A blk 1, Six1-Eya2 inh 7, PINK1 expr mod -2.3%, TRPV1 potentiator 6, D2 ag -1.4 and D2 potentiator -7.
`COC(=O)c1c(O)ccc(Oc2ccccc2)c1C(=O)OC` gave Sfp PPTase inh 10%, CtBP-E1A blk 10, Six1-Eya2 inh 8, PINK1 expr mod 0.0%, TRPV1 potentiator 0, D2 ag -2.0 and D2 potentiator -29.
Screening Cc1sc2ncnc(OCC(=O)NCC3CCCO3)c2c1C (stereo not given) returned Sfp PPTase inh 12%, CtBP-E1A blk 4, Six1-Eya2 inh 2, PINK1 expr mod -2.6%, TRPV1 potentiator -20, D2 ag -4.9 and D2 potentiator -10.
For O=C1CC2(CCN(C(=O)c3c(F)cccc3Cl)CC2)Oc2ccccc21 the results were CtBP-E1A blk 2, Six1-Eya2 inh -1, PINK1 expr mod -2.3%, TRPV1 potentiator -7, D2 ag -1.9 and D2 potentiator 4.
CCc1cccc(OCC2Cn3c(nc4c3c(=O)n(C)c(=O)n4C)O2)c1 (stereo not given) was read as Sfp PPTase inh 7%, CtBP-E1A blk -2, Six1-Eya2 inh -5, PINK1 expr mod 1.6%, TRPV1 potentiator -14, D2 ag 12 and D2 potentiator -2.
For Cc1noc(/C=C/N(C)C)c1S(=O)(=O)N1CCCC(C(=O)NC2CCCCC2C)C1 (stereo not given) the results were Sfp PPTase inh -5%, CtBP-E1A blk -3, Six1-Eya2 inh -1, PINK1 expr mod 1.3%, TRPV1 potentiator inconclusive, D2 ag -1.5 and D2 potentiator -2.
O=C(CSc1ccc2c(c1)OCCO2)N1CCN(c2ccccc2O)CC1 was read as CtBP-E1A blk 3, Six1-Eya2 inh -8, PINK1 expr mod 2.9%, TRPV1 potentiator -14, D2 ag 2.3 and D2 potentiator -3.
NS(=O)(=O)c1ccc(NC(=S)NNC(=O)c2cccs2)cc1 was read as Sfp PPTase inh 16µM*, Six1-Eya2 inh -12, PINK1 expr mod 0.6%, TRPV1 potentiator 0, D2 ag -2.1 and D2 potentiator -7.
`CCOC(=O)c1ccc(C(=O)NNC(=O)C2CC=CCC2)cc1` (stereo not given) gave CtBP-E1A blk 3, Six1-Eya2 inh 3, PINK1 expr mod 0.1%, D2 ag -3.5 and D2 potentiator -5.
`COc1ccc(CNC(=O)COC(=O)CN2C(=O)C(C)Oc3ccc(C)cc32)cc1` (stereo not given) gave Sfp PPTase inh 2%, CtBP-E1A blk 2, Six1-Eya2 inh 0, PINK1 expr mod 0.5%, TRPV1 potentiator 4, D2 ag -1.5 and D2 potentiator -11.

An unsorted share of the library. Share with any hit: about 3.7%.
